# Vaccinia inh: blocks a specific stage of Vaccinia orthopoxvirus infection, primary screen, cell-based, single point; Vaccinia-infected cells, mCherry/Venus stage reporter fluorescence; active compounds read low; some inactives read as strong as hits; activity change (mCherry), % (concentration not given with the values); actives 0.01% (n = 89,000); AID 1053133, 2014;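 active = mCherry past -33% and 40 or more points under the early reporter, replicates agreeing; inconclusive = past -33% without that gap or agreement; tested in A549 cells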;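 also: scaled between vehicle wells and reference inhibitor wells; 23 nL library stock went into each well; one replicate is shown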
# Vaccinia inh Venus: recorded beside Vaccinia inh, whose call it bears; activity change (Venus), %; measured here: Venus reporter, other viral stage;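 negative = less Venus signal; first of two replicates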
# An asterisk follows results filed as active; ? = inconclusive; · = not tested or not shown. These rows are one share of the data; the hit share may differ from the screen's.
SMILES	Vaccinia inh	Vaccinia inh Venus
C[C@H](CO)N1C[C@H](C)[C@H](CN(C)Cc2ccccc2)Oc2ccc(NC(=O)CCN3CCOCC3)cc2C1=O	-2.1	0.6
CNC[C@@H]1Oc2ccc(NS(=O)(=O)c3cccs3)cc2CC(=O)N([C@H](C)CO)C[C@@H]1C	-16.0	-3.9
Cc1noc(C)c1S(=O)(=O)Nc1ccc2c(c1)CC(=O)N([C@@H](C)CO)C[C@@H](C)[C@@H](CN(C)C(=O)NC(C)C)O2	23.5	17.9
CCN(C[C@@H]1[C@@H](c2ccccc2)[C@@H](CO)N1C(=O)COC)C(=O)NC(C)C	4.9	9.7
C[C@@H]1CN([C@H](C)CO)C(=O)c2cc(NS(=O)(=O)c3ccccc3)ccc2O[C@@H]1CN(C)Cc1ccc2c(c1)OCO2	4.6	9.8
COc1ccc(S(=O)(=O)Nc2ccc3c(c2)C(=O)N([C@@H](C)CO)C[C@@H](C)[C@H](CN(C)CC2CC2)OCCCC[C@H](C)O3)cc1	10.9	2.6
O=C(Cc1cccnc1)N1CCCCN2[C@H](CO)[C@H](c3ccc(C#CC4CCCC4)cc3)[C@@H]2C1	?	·
O=C(C[C@@H]1C=C[C@@H](NC(=O)Nc2cc(F)ccc2F)[C@H](CO)O1)NCc1ccncn1	9.0	2.3
C[C@@H]1CCCCO[C@H](CN(C)Cc2ccc(Cl)c(Cl)c2)[C@@H](C)CN([C@H](C)CO)C(=O)c2cc(NS(=O)(=O)c3cccs3)ccc2O1	?	·
C[C@H](CO)N1C[C@H](C)[C@H](CN(C)Cc2ccc(Oc3ccccc3)cc2)Oc2c(NC(=O)Nc3ccccc3)cccc2C1=O	?	·
CN1C[C@@H]2[C@H](c3ccccc31)[C@@H](CO)N2C(=O)c1ccccn1	8.1	5.9
CO[C@H]1CN(C)C(=O)c2cc(NC(=O)c3ccno3)ccc2OC[C@@H](C)N(S(C)(=O)=O)C[C@@H]1C	16.6	9.5
O=C(Nc1ccc(Cl)cc1)N[C@@H]1CC[C@@H](CCNS(=O)(=O)c2ccccc2F)O[C@H]1CO	-23.5	-17.8
OC[C@@H]1[C@@H](c2ccc(C#Cc3ccccc3F)cc2)[C@H]2CN(Cc3cncnc3)CCCCN12	-30.3	-30.6
O=C(NC1CCCC1)[C@@H]1[C@@H](CO)[C@@H]2Cn3c(ccc(C4=CCCC4)c3=O)[C@H]1N2C(=O)c1ccccc1	-13.1	-3.3
CCC(=O)Nc1ccc2c(c1)OC[C@@H](C)N(C(=O)c1cccnc1)C[C@H](C)[C@H](OC)CN(C)C2=O	7.8	9.7
C[C@H]1CN([C@@H](C)CO)C(=O)c2cc(C#Cc3cccnc3)cnc2O[C@@H]1CN(C)S(C)(=O)=O	17.2	9.7
C[C@@H]1CN([C@H](C)CO)C(=O)Cc2cc(NC(=O)Cc3ccccc3)ccc2O[C@@H]1CN(C)S(=O)(=O)c1ccc(F)cc1	-5.2	-4.6
C/C=C/c1ccc2c(c1)O[C@@H](CN(C)C(=O)Cc1ccccn1)[C@@H](C)CN([C@@H](C)CO)S2(=O)=O	2.1	6.3
CO[C@H]1CN(C)C(=O)c2cc(NC(=O)C3CC3)ccc2OC[C@@H](C)N(Cc2cccnc2)C[C@@H]1C	-4.1	-1.4
C[C@H](CO)N1C[C@H](C)[C@H](CN(C)C(=O)c2ccc(F)cc2)Oc2ncc(Br)cc2C1=O	7.2	7.5
C[C@H]1CN([C@@H](C)CO)C(=O)c2cccc(NC(=O)c3ccc(-c4nccs4)cc3)c2O[C@@H]1CN(C)S(=O)(=O)c1ccccc1	10.0	3.8
C[C@H]1CN([C@@H](C)CO)C(=O)c2cccc(NC(=O)C3CCOCC3)c2O[C@@H]1CN(C)Cc1ccc(-c2ccccc2)cc1	-24.9	-18.9
C[C@@H]1CCCCO[C@H](CN(C)CC2CCCCC2)[C@@H](C)CN([C@H](C)CO)C(=O)c2cc(NC(=O)Nc3ccc(F)cc3)ccc2O1	?	·
CO[C@@H]1CN(C)C(=O)c2cc(NC(C)=O)ccc2OC[C@H](C)N(C(=O)C2CCC2)C[C@@H]1C	0.7	4.5
COc1ccccc1CN1[C@@H]2CN(C(=O)c3ccc(F)cc3)c3ccccc3[C@@H]2[C@@H]1CO	-3.5	-0.6
COc1cccc(-c2ccc([C@H]3[C@H](CO)N4C(=O)CN(C(=O)NC(C)C)C[C@@H]34)cc2)c1	31.0	3.9
COc1ccc(S(=O)(=O)Nc2ccc3c(c2)CC(=O)N([C@@H](C)CO)C[C@@H](C)[C@@H](CN(C)Cc2ccc4c(c2)OCO4)O3)cc1	-9.6	-4.1
C[C@H](CO)N1C[C@H](C)[C@@H](CN(C)Cc2ccc(Cl)c(Cl)c2)Oc2ccc(NC(=O)Nc3ccc(C(F)(F)F)cc3)cc2CC1=O	-26.7	-16.5
Cc1ccc(S(=O)(=O)Nc2cccc3c2O[C@@H](CN(C)C(=O)Nc2ccc(C(F)(F)F)cc2)[C@@H](C)CN([C@@H](C)CO)C3=O)cc1	?	·
C[C@H](CO)N1C[C@H](C)[C@@H](CN(C)Cc2ccccc2)OCCCC[C@H](C)Oc2ccc(NC(=O)Nc3cccc4ccccc34)cc2C1=O	?	·
C[C@@H]1CN([C@H](C)CO)C(=O)c2cccc(N(C)C)c2O[C@@H]1CN(C)C(=O)Nc1cccc2ccccc12	11.6	4.9
CCCNC(=O)N1C[C@@H](O)COC[C@@H]2O[C@@H](CC(=O)N[C@H]3CCN(Cc4ccccc4)C3)CC[C@H]21	6.3	13.3
CC(=O)N1CCCCN2[C@@H](CO)[C@H](c3ccc(-c4cccc(C(=O)N(C)C)c4)cc3)[C@@H]2C1	22.6	10.6
C[C@@H]1CN([C@H](C)CO)C(=O)CCCn2cc(nn2)CO[C@@H]1CN(C)S(=O)(=O)c1ccc(-c2ccccc2)cc1	-9.0	-2.9
C[C@@H]1CN([C@H](C)CO)C(=O)c2c(c3ccccc3n2C)-c2ccccc2CO[C@@H]1CN(C)Cc1ccc2c(c1)OCCN2C	?	·
COc1ccc(NC(=O)N(C)C[C@H]2Oc3ccc(NS(C)(=O)=O)cc3CC(=O)N([C@H](C)CO)C[C@@H]2C)cc1	-10.0	-5.8
CNC[C@H]1Oc2ncc(-c3ccccc3C)cc2C(=O)N([C@H](C)CO)C[C@H]1C	-32.3	-18.3
C[C@@H]1CCCCO[C@H](CN(C)C(=O)NC2CCCCC2)[C@@H](C)CN([C@@H](C)CO)C(=O)c2cc(NS(=O)(=O)c3cn(C)cn3)ccc2O1	6.8	4.3
COc1ccc2c3c(n(C)c2c1)[C@H](CO)N(Cc1ccc2c(c1)OCO2)CC31CCN(C(C)=O)CC1	21.8	14.6
CCCNC(=O)C[C@H]1CC[C@H]2[C@@H](COC[C@@H](O)CN2Cc2cccc(F)c2)O1	-5.7	1.2
C[C@H](CO)N1C[C@H](C)[C@@H](CN(C)S(=O)(=O)CC(F)(F)F)OCc2ccccc2-c2ccccc2C1=O	13.7	14.3
COc1ccc2c3c([nH]c2c1)[C@H](CO)N(C(=O)Nc1cccc(F)c1)CC31CN(S(=O)(=O)c2cccc(C)c2)C1	-14.1	-17.8
Cc1noc(C)c1S(=O)(=O)Nc1ccc2c(c1)CC(=O)N([C@@H](C)CO)C[C@@H](C)[C@@H](CN(C)C(=O)Nc1ccccc1)O2	9.7	9.1
COc1cccc(C(=O)Nc2ccc3c(c2)C(=O)N(C)[C@@H]2CC[C@H](CC(=O)NCC4CC4)O[C@@H]2CO3)c1	0.9	1.6
C[C@H](CO)N1C[C@H](C)[C@@H](CN(C)C(=O)c2ccccc2)Oc2ncc(/C=C/c3ccccc3)cc2C1=O	-8.7	-18.9
COc1ccccc1-c1ccc([C@H]2[C@H](C#N)N(C(=O)C3CCC3)[C@H]2CO)cc1	1.2	4.6
CO[C@H]1CN(C)C(=O)c2cc(NS(C)(=O)=O)ccc2OC[C@H](C)N(C(=O)C2CCCC2)C[C@H]1C	-0.6	-1.7
Cc1ccc(S(=O)(=O)N(C)C[C@@H]2OCCCC[C@H](C)Oc3ccc(NC(=O)Nc4c(C)noc4C)cc3C(=O)N([C@@H](C)CO)C[C@@H]2C)cc1	4.3	4.8
O=C(C[C@H]1C=C[C@@H](NS(=O)(=O)c2ccc(F)cc2)[C@@H](CO)O1)N1CCc2ccccc2C1	1.1	-7.0
C[C@@H]1CCCCO[C@@H](CN(C)S(=O)(=O)c2cccs2)[C@@H](C)CN([C@@H](C)CO)C(=O)c2cc(N(C)C)ccc2O1	2.2	-6.9
C[C@@H]1CN([C@@H](C)CO)C(=O)c2cc(NS(=O)(=O)c3ccc(F)cc3)ccc2O[C@@H]1CN(C)S(=O)(=O)c1cccs1	7.9	1.3
CCC(=O)N1CC2(CCN(C(=O)Cc3ccccc3)CC2)c2c(n(C)c3cc(OC)ccc23)[C@H]1CO	-8.8	-12.7
CO[C@@H](CN(C)C(=O)c1cnccn1)[C@H](C)CN([C@H](C)CO)S(=O)(=O)c1ccc(C)cc1	13.8	15.1
CCCN1C[C@H](C)[C@H](OC)CN(C)C(=O)c2ccc(NC(=O)Nc3ccccc3F)cc2OC[C@H]1C	-8.2	1.0
COc1ccc2c3c(n(C)c2c1)[C@@H](CO)N(Cc1cccc(Cl)c1)CC31CCN(C(C)=O)CC1	3.5	2.6
C[C@H]1CN([C@@H](C)CO)C(=O)c2cc(-c3ccncc3)cnc2O[C@@H]1CN(C)Cc1ccc(F)cc1	20.7	8.2
C[C@@H]1CN([C@@H](C)CO)C(=O)c2cc(C3=CCCC3)cnc2O[C@H]1CN(C)C(=O)c1ccccn1	12.6	9.3
CNC(=O)C[C@H]1CC[C@H]2[C@@H](COC[C@H](O)CN2S(=O)(=O)c2cccc(Cl)c2)O1	5.8	8.4
C[C@H](CO)N1C[C@H](C)[C@H](CN(C)Cc2ccccc2O)OCc2cn(nn2)CCCC1=O	10.1	4.6

# Further records follow:
SMILES	Vaccinia inh	Vaccinia inh Venus
CC(C)CC#Cc1ccc2c(c1)O[C@@H](CN(C)Cc1ccc3c(c1)OCO3)[C@H](C)CN([C@@H](C)CO)S2(=O)=O	?	·
CO[C@H]1CN(C)C(=O)c2cc(NS(=O)(=O)CC(F)(F)F)ccc2OC[C@H](C)N(C(=O)NC(C)C)C[C@H]1C	0.9	3.1
O=C(Nc1cccc(F)c1)N1CC(=O)N2[C@H](C1)[C@H](c1ccc(C#CC3CC3)cc1)[C@@H]2CO	-1.5	-18.2
O=C(N[C@@H]1CC[C@@H](CCNC(=O)C2CC2)O[C@H]1CO)c1ccccn1	7.2	13.5
COc1ccc(S(=O)(=O)Nc2ccc3c(c2)C(=O)N([C@H](C)CO)C[C@H](C)[C@@H](CN(C)S(=O)(=O)c2ccc(F)cc2)OCCCC[C@@H](C)O3)cc1	1.8	5.4
Cc1noc(C)c1NC(=O)Nc1ccc2c(c1)C(=O)N([C@@H](C)CO)C[C@H](C)[C@H](CN(C)C(=O)NC1CCCCC1)OCCCC[C@H](C)O2	14.2	5.9
Cc1ccc(S(=O)(=O)N[C@H]2CC[C@H](CCn3cc(C(C)C)nn3)O[C@@H]2CO)cc1	-19.4	-14.0
C[C@@H]1CN([C@@H](C)CO)C(=O)c2cccc(NC(=O)c3ccc(-c4nccs4)cc3)c2O[C@@H]1CN(C)Cc1ccc(C(F)(F)F)cc1	?	·
CO[C@H]1CN(C)C(=O)c2cc(NC(=O)C3CCC3)ccc2OC[C@@H](C)NC[C@@H]1C	7.7	7.5
O=C(Cc1ccncc1)NCC[C@@H]1CC[C@H](NC(=O)C2CC2)[C@H](CO)O1	34.5	16.0
O=C(C[C@H]1C[C@@H]2c3cc(NC(=O)Nc4ccccc4F)ccc3O[C@@H]2[C@H](CO)O1)NC1CCCCC1	-2.3	0.2
CC(C)NC(=O)Nc1ccc2c(c1)C(=O)N([C@@H](C)CO)C[C@H](C)[C@@H](CN(C)C(=O)Nc1ccccc1)OCCCC[C@H](C)O2	1.4	-2.3
Cc1noc(C)c1NC(=O)N(C)C[C@H]1Oc2ccc(NC(=O)NC3CCCCC3)cc2C(=O)N([C@@H](C)CO)C[C@H]1C	10.5	-3.1
CN1C(=O)c2cc(NC(=O)C3CC3)ccc2OC[C@H]2O[C@@H](CC(=O)NCC3CCCCC3)CC[C@@H]21	5.5	6.0
COc1ccc(S(=O)(=O)Nc2ccc3c(c2)C(=O)N([C@@H](C)CO)C[C@@H](C)[C@@H](CN(C)S(=O)(=O)c2ccc(C)cc2)O3)cc1	-25.9	-7.6
C[C@@H]1CN([C@@H](C)CO)S(=O)(=O)c2ccc(Br)cc2O[C@H]1CN(C)Cc1ccccc1F	?	·
O=C(Nc1nccs1)[C@@H]1[C@@H](CO)[C@@H]2Cn3c(cccc3=O)[C@@H]2N1C(=O)C1CCCC1	8.1	1.5
O=C(C[C@@H]1CC[C@H]2[C@@H](COC[C@@H](O)CN2CC2CC2)O1)NCC1CC1	3.2	4.7
COCC(=O)N(C)C[C@@H]1Oc2ncc(-c3ccc(C)cc3)cc2C(=O)N([C@@H](C)CO)C[C@H]1C	4.3	2.4

# Structural class, those above with a thiophene ring, fused or not
SMILES	Vaccinia inh	Vaccinia inh Venus
CNC[C@@H]1Oc2ccc(NS(=O)(=O)c3cccs3)cc2CC(=O)N([C@H](C)CO)C[C@@H]1C	-16.0	-3.9
C[C@@H]1CCCCO[C@H](CN(C)Cc2ccc(Cl)c(Cl)c2)[C@@H](C)CN([C@H](C)CO)C(=O)c2cc(NS(=O)(=O)c3cccs3)ccc2O1	?	·
C[C@@H]1CCCCO[C@@H](CN(C)S(=O)(=O)c2cccs2)[C@@H](C)CN([C@@H](C)CO)C(=O)c2cc(N(C)C)ccc2O1	2.2	-6.9
C[C@@H]1CN([C@@H](C)CO)C(=O)c2cc(NS(=O)(=O)c3ccc(F)cc3)ccc2O[C@@H]1CN(C)S(=O)(=O)c1cccs1	7.9	1.3
